# From PubChem BioAssay
# AF4-AF9 inh – MLL-AF4/AF9 protein interaction inhibition; AlphaScreen, biotin-AF4 peptide binding to FLAG-AF9; inhibition, % at 10 µM; 350,000 tested, 0.47% active; AID 651704;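 active = every replicate reaching a set inhibition limit, whatever the replicate mean, cut at about 25% in these data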;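 also: 0% = plate neutral control median and 100% = total signal loss; the record names both 10 and 1 µM as test concentration; the first replicate is given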
# Target sequence (P42568 whole entry, looked up): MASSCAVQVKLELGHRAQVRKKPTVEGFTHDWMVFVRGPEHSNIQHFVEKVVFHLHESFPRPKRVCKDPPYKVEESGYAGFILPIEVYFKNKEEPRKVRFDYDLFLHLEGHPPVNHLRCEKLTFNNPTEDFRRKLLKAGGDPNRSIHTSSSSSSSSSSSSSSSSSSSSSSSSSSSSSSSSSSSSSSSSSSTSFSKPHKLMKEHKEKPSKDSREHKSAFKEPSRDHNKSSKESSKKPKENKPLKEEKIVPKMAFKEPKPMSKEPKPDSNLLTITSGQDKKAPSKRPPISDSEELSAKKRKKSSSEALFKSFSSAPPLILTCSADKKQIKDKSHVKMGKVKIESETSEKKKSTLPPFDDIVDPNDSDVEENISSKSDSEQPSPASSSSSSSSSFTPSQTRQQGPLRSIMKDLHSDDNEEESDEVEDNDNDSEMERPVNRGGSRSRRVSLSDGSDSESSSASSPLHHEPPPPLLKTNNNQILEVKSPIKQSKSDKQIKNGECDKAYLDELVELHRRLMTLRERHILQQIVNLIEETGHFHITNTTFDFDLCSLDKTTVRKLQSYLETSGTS
# FGF22 binding – binders of recombinant human FGF22 by thermal shift; AID 651658; Q9HCT0; SYPRO orange fluorescence; percent of sucrose octasulfate shift, DMSO zero; calls only at 9.99 µM; 340,000 tested, 1.5% active;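 active = melting point raised past a set limit in the mean and every replicate; three in four hits are not shown here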
# Target sequence (Q9HCT0 whole entry, looked up): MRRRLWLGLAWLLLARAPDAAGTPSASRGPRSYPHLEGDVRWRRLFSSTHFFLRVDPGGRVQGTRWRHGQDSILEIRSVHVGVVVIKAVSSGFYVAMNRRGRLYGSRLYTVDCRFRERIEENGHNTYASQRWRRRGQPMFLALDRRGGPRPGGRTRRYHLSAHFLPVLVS
# rRNA inh HTS – inhibits bacterial ribosomal RNA function over humanized ribosomes; E. coli WT GFP vs humanized-ribosome RFP mutants, fluorescence, 24 h; stronger effect = lower value; DMSO median 0, no signal -100; GFP signal change (wild-type ribosome), % (no concentration beside the values); 350,000 tested, 1.6% active;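 active = significant combined selectivity score with lowered wild-type GFP, culture density cut under 30%, mutant RFP and density less affected; inactive = any of these conditions unmet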; also: one replicate is shown; some compounds called inactive have numbers as strong as hits
# rRNA inh HTS OD600 – second read-out of rRNA inh HTS, no call of its own (marks repeat the call); OD600 change, %; measured here: OD600 growth;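 optical density of the mix in the first replicate; 0 = DMSO median and -100 = no signal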
# rRNA inh HTS RFP – second read-out of rRNA inh HTS, no call of its own (marks repeat the call); RFP signal change, %; measured here: RFP humanized mutant strains;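 first replicate; 0 = DMSO median and -100 = no signal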
# * = called active by the depositor; i = inactive; & = joins results of further samples. Not all compounds are listed (hit frequency here may not be typical).
item	AF4-AF9 inh	FGF22 binding	rRNA inh HTS	rRNA inh HTS OD600	rRNA inh HTS RFP	molecule
1	-1.1	i	1	3	-0.9	CCCNC(=O)C[C@H]1CC[C@@H]2[C@@H](COc3ccc(NC(=O)NC(C)C)cc3C(=O)N2C)O1
2	19	i	-29	-63	5.7	C[C@@H]1CN([C@H](C)CO)S(=O)(=O)c2ccc(C#CCN(C)C)cc2O[C@H]1CN(C)Cc1ccccc1F
3	-5.8	i	-1	-6	0.8	O=C(C[C@@H]1C=C[C@@H](NS(=O)(=O)c2ccccc2)[C@H](CO)O1)NCc1ccccc1F
4	-13	i	2	2	0.1	C[C@@H]1CCCCO[C@@H](CN(C)S(=O)(=O)c2ccc(F)cc2)[C@@H](C)CN([C@H](C)CO)C(=O)c2cc(NS(=O)(=O)c3cn(C)cn3)ccc2O1
5	6.7	i	-3	-10	0.3	C[C@@H]1CCCCO[C@H](CN(C)C(=O)C2CCCCC2)[C@H](C)CN([C@H](C)CO)C(=O)c2cc(NC(=O)Cc3ccccc3)ccc2O1
6	-0.6	i	0	4	0.1	O=C(C[C@@H]1C[C@@H]2c3cc(NC(=O)Nc4ccc(C(F)(F)F)cc4)ccc3O[C@@H]2[C@H](CO)O1)NCc1ccc2c(c1)OCO2
7	-0.3	i	0	-24	13	C[C@H](CO)N1C[C@H](C)[C@H](CN(C)Cc2ccc(-c3ccccc3)cc2)Oc2ccc(NS(=O)(=O)c3ccccc3)cc2C1=O
8	-10	i	1	-12	4.1	CC(C)C#Cc1ccc2c(c1)O[C@@H](CN(C)C(=O)c1cccc(F)c1)[C@@H](C)CN([C@@H](C)CO)S2(=O)=O
9	-2.7	i	-2	-17	-3.0	CN(Cc1ccccc1)Cc1cc(=O)oc2ccccc12
10	-0.7	i	-2	-1	7.2	COc1ccc2c3c([nH]c2c1)[C@H](CO)N(C(=O)Nc1ccc(F)cc1)CC31CCN(Cc2cc(-c3ccccc3)on2)CC1
11	-0.2&2.0	i	-2&-12	-17&-38	-6.9&-7.2	C[C@H](CO)N1C[C@H](C)[C@H](CN(C)S(=O)(=O)c2cccc(F)c2)Oc2cc(Br)ccc2S1(=O)=O
12	2.0	i	-2	-19	1.3	CO[C@H]1CN(C)C(=O)c2cc(NC(=O)C3CC3)ccc2OC[C@@H](C)N(Cc2cccc(F)c2)C[C@@H]1C
13	-0.1	i	-46	-70	-6.4	O=C(NC1CCCCC1)N1CC(=O)N2[C@H](C1)[C@H](c1ccc(-c3cccc(F)c3)cc1)[C@@H]2CO
14	-0.5	i	5	5	4.0	O=C(COC(=O)c1ccccc1SCC(=O)N1CCCC1)NCc1ccc(F)cc1
15	2.9	i	4	4	-0.1	COc1ccc(S(=O)(=O)N(C)C[C@@H]2OCCCC[C@@H](C)Oc3ccc(NC(=O)NC4CCCCC4)cc3C(=O)N([C@H](C)CO)C[C@H]2C)cc1
16	-3.1	i	8	-2	1.0	CCc1nc2ccc(C(=O)N3CCN(C)CC3)cn2c1N(CCC(C)C)CCN(C)C
17	1.0	i	1	3	-5.4	COc1ccccc1-c1ccc([C@H]2[C@H](C#N)N(C(=O)CN(C)C)[C@H]2CO)cc1
18	7.1	i	-4	-26	19	COc1ccc(NC(=O)Nc2ccc3c(c2)CC(=O)N([C@@H](C)CO)C[C@H](C)[C@@H](CN(C)CC2CCCCC2)O3)cc1
19	-4.2	i	5	11	0.2	CC(C)NC(=O)N(C)C[C@H]1Oc2c(NC(=O)c3cnccn3)cccc2C(=O)N([C@H](C)CO)C[C@@H]1C
20	7.5	i	6	-5	3.0	COc1ccc(NC(=O)Nc2ccc3c(c2)C(=O)N([C@H](C)CO)C[C@H](C)[C@@H](CN(C)Cc2ccc4c(c2)OCO4)OCCCC[C@@H](C)O3)cc1
21	1.7	i	-1	-7	0.0	C[C@H]1CN([C@@H](C)CO)C(=O)c2cc(N(C)C)ccc2O[C@H]1CN(C)S(=O)(=O)c1ccccc1
22	-1.9	i	-1	4	-3.9	CCC(=O)Nc1ccc2c(c1)OC[C@@H](C)N(C(=O)CN(C)C)C[C@H](C)[C@@H](OC)CN(C)C2=O
23	-4.2	i	5	20	-2.9	CCN1C(=O)N2C[C@H]3CON(C)[C@H]3C[C@H]2c2ccccc21
24	-2.9	i	-2	-5	-1.8	C[C@@H]1CCCCO[C@H](CN(C)Cc2ccccc2)[C@H](C)CN([C@@H](C)CO)C(=O)c2cc(NC(=O)c3ccncc3)ccc2O1
25	10	i	4	6	-0.1	Cc1ccc(S(=O)(=O)Nc2ccc3c(c2)C(=O)N([C@H](C)CO)C[C@@H](C)[C@@H](CN(C)Cc2ccc(C(F)(F)F)cc2)OCCCC[C@H](C)O3)cc1
26	-2.9	i	4	15	-4.6	C[C@@H]1CN([C@H](C)CO)C(=O)c2cc(C#C[C@@H](C)O)cnc2O[C@H]1CN(C)Cc1cncnc1
27	-7.0	i	-2	-14	-1.1	C[C@@H]1CN([C@H](C)CO)C(=O)c2cc(NC(=O)Cc3ccccc3)ccc2O[C@H]1CN(C)C(=O)Nc1cccc2ccccc12
28	-2.9	i	0	17	1.2	O=C1Nc2ccccc2C(=O)N2c3ccccc3NC(=O)C12 (centres undefined)
29	-1.2	i	1	5	-0.2	O=C(N[C@H]1CC[C@@H](CCNC(=O)C2CCOCC2)O[C@@H]1CO)c1ccccn1
30	-1.3	i	-2	-4	0.5	COc1cccc(C(=O)Nc2ccc3c(c2)OC[C@@H](C)N(C(C)=O)C[C@@H](C)[C@H](OC)CN(C)C3=O)c1
31	-1.3	i	2	10	0.0	O=C(C[C@@H]1C=C[C@H](NS(=O)(=O)c2ccccc2)[C@H](CO)O1)NCCN1CCCCC1
32	4.9	i	0	-1	1.4	C[C@@H]1CN([C@H](C)CO)C(=O)c2cc(NS(=O)(=O)c3cccs3)ccc2O[C@@H](C)CCCCO[C@H]1CN(C)Cc1ccccc1
33	-4.4	i	12	9	1.1	C[C@H]1CN(C2CCCCC2)C(=O)[C@@H]1CC(=O)Nc1ccc(Br)cc1
34	-10	i	10	19	-1.5	CCN(CC)CCn1c(=S)[nH]c2cc(C(=O)NCc3ccccc3)ccc2c1=O
35	0.9	i	9	-5	0.2	COc1cccc(-c2cnc(C(O)c3cccc(C)c3C)[nH]2)c1 (centres undefined)
36	3.8	i	2	-12	3.6	Cc1ccc(S(=O)(=O)Nc2ccc3c(c2)C(=O)N([C@H](C)CO)C[C@H](C)[C@H](CN(C)Cc2ccc(Cl)c(Cl)c2)O3)cc1
37	-0.1	i	-13	-29	-2.8	O=C(c1ccc(CS(=O)Cc2ccccc2Cl)o1)N1CCN(c2ccccc2)CC1 (centres undefined)
38	1.6	i	0	-4	6.3	COCCN(C[C@@H]1N[C@@H](CO)[C@@H]1c1ccc(-c2cccc(F)c2)cc1)C(C)=O
39	1.5	i	-4	-5	0.9	O=C(C1CC1)N1CC[C@@H]2[C@@H](CO)Nc3ccc(-c4cccc(F)c4)cc3[C@@H]21
40	-1.1	i	10	19	0.7	OCc1ccccc1-c1ccc2nccn2c1
41	3.6	i	5	3	2.0	Cc1c(Cl)ccc(S(=O)(=O)N2CCN(C)CC2)c1Cl
42	-6.3	i	5	4	-0.4	C[C@H](CO)N1C[C@H](C)[C@H](CN(C)C)OCCCC[C@H](C)Oc2ccc(NS(=O)(=O)c3cn(C)cn3)cc2C1=O
43	0.8	i	1	1	-0.7	CCCN(C)C[C@@H]1OCCCC[C@@H](C)Oc2ccc(NS(=O)(=O)c3ccccc3)cc2C(=O)N([C@H](C)CO)C[C@@H]1C
44	-1.7	i	4	6	-2.1	C[C@@H]1CN([C@@H](C)CO)C(=O)Cc2cc(NS(=O)(=O)c3cn(C)cn3)ccc2O[C@@H]1CN(C)C
45	-0.5	i	-2	-22	-8.3	Cc1cc2nc(-c3nnnn3Cc3ccccc3)c(=O)[nH]c2cc1C
46	4.3	i	-29	-70	-18	CCc1nc2ccc(C(=O)NCC3CCCCC3)cn2c1N(C)Cc1nccs1
47	-2.1	i	-2	-6	-1.6	C[C@@H]1CN([C@H](C)CO)C(=O)c2cccc(NC(=O)c3cnccn3)c2O[C@@H]1CN(C)C(=O)Nc1ccc(C(F)(F)F)cc1
48	-1.9	i	-1	6	-1.3	CCNC(=O)C[C@H]1CC[C@H]2[C@@H](COc3ccc(NC(=O)C4CCOCC4)cc3C(=O)N2C)O1

# Arranged by SMILES length (smallest number first): 9 of the compounds above.
item	AF4-AF9 inh	FGF22 binding	rRNA inh HTS	rRNA inh HTS OD600	rRNA inh HTS RFP	molecule
40	-1.1	i	10	19	0.7	OCc1ccccc1-c1ccc2nccn2c1
45	-0.5	i	-2	-22	-8.3	Cc1cc2nc(-c3nnnn3Cc3ccccc3)c(=O)[nH]c2cc1C
46	4.3	i	-29	-70	-18	CCc1nc2ccc(C(=O)NCC3CCCCC3)cn2c1N(C)Cc1nccs1
37	-0.1	i	-13	-29	-2.8	O=C(c1ccc(CS(=O)Cc2ccccc2Cl)o1)N1CCN(c2ccccc2)CC1 (centres undefined)
38	1.6	i	0	-4	6.3	COCCN(C[C@@H]1N[C@@H](CO)[C@@H]1c1ccc(-c2cccc(F)c2)cc1)C(C)=O
39	1.5	i	-4	-5	0.9	O=C(C1CC1)N1CC[C@@H]2[C@@H](CO)Nc3ccc(-c4cccc(F)c4)cc3[C@@H]21
44	-1.7	i	4	6	-2.1	C[C@@H]1CN([C@@H](C)CO)C(=O)Cc2cc(NS(=O)(=O)c3cn(C)cn3)ccc2O[C@@H]1CN(C)C
43	0.8	i	1	1	-0.7	CCCN(C)C[C@@H]1OCCCC[C@@H](C)Oc2ccc(NS(=O)(=O)c3ccccc3)cc2C(=O)N([C@H](C)CO)C[C@@H]1C
47	-2.1	i	-2	-6	-1.6	C[C@@H]1CN([C@H](C)CO)C(=O)c2cccc(NC(=O)c3cnccn3)c2O[C@@H]1CN(C)C(=O)Nc1ccc(C(F)(F)F)cc1

# Following part.
item	AF4-AF9 inh	FGF22 binding	rRNA inh HTS	rRNA inh HTS OD600	rRNA inh HTS RFP	molecule
49	1.4	i	1	7	-0.1	CO[C@H]1CN(C)C(=O)c2ccc(NC(=O)C3CC3)cc2OC[C@H](C)N(C(=O)C2CCOCC2)C[C@H]1C
50	0.2	i	-1	0	-3.7	CC=Cc1ccc2n(c1=O)C[C@@H]1[C@@H](CO)[C@H](C(=O)OC)N(C(C)=O)[C@H]21 (mixture of isomers)
51	-0.2	i	4	4	0.0	CO[C@H]1CN(C)C(=O)c2ccc(NC(=O)C3CC3)cc2OC[C@@H](C)N(CCc2ccccc2)C[C@H]1C
52	-5.7	i	9	16	-1.1	C/C=C/c1cnc2c(c1)C(=O)N([C@H](C)CO)C[C@@H](C)[C@@H](CN(C)CC1CCOCC1)O2
53	-1.5	i	2	9	-1.0	Cc1ccc(S(=O)(=O)Nc2ccc3c(c2)CC(=O)N([C@@H](C)CO)C[C@@H](C)[C@@H](CN(C)S(C)(=O)=O)O3)cc1
54	1.2	i	-8	-20	1.3	Cc1ccc(-c2ccc3c(c2)O[C@H](CN(C)C(=O)C2CC2)[C@@H](C)CN([C@@H](C)CO)S3(=O)=O)cc1
55	-1.3	i	1	11	1.1	Cc1ccc(S(=O)(=O)Nc2ccc3c(c2)C(=O)N([C@H](C)CO)C[C@@H](C)[C@H](CN(C)C(=O)Nc2ccccc2)O3)cc1
56	-2.1	i	14	19	-0.1	CCNC(=O)C1CCCN(C(=O)c2cccc(Cl)c2)CC1 (centres undefined)
57	-1.5	i	4	11	-1.4	CCN(CC)C(=O)C1=C(C)N(CCCOC)C(=O)C(CC(=O)NC2CCCCC2)C1 (centres undefined)
58	1.9	i	-54	-77	-13	CC(=O)Nc1cccc(-c2csc(C(O)c3cccc(Cl)c3)n2)c1 (centres undefined)
59	-14	i	-6	2	0.8	C[C@H](CO)N1C[C@H](C)[C@H](CN(C)C(=O)NC2CCCC2)Oc2cc(-c3cccnc3)ccc2S1(=O)=O
60	-4.4	i	-2	-5	-3.2	C#CCNC(=O)C[C@@H]1C[C@@]2(C(=O)OC)CC(C)(C)CC=C2N(Cc2ccccc2)C1=O
61	-2.4	i	3	-4	2.3	COc1ccc(NC(=O)N(C)C[C@@H]2OCCCC[C@@H](C)Oc3ccc(NC(=O)Nc4ccc(C(F)(F)F)cc4)cc3C(=O)N([C@@H](C)CO)C[C@H]2C)cc1
62	4.1	i	-1	0	-3.5	COc1ccccc1CNC(=O)C[C@@H]1CC[C@H]2[C@@H](COC[C@H](O)CN2C(=O)Nc2ccc(F)cc2)O1
63	-0.5	i	1	4	-0.8	CCCC(=O)Nc1ccc2c(c1)OC[C@@H](C)N(CCC)C[C@H](C)[C@@H](OC)CN(C)C2=O
64	-2.0	i	2	2	-2.5	CNC[C@@H]1OCCCC[C@@H](C)Oc2ccc(NS(=O)(=O)c3ccc(OC)cc3)cc2C(=O)N([C@H](C)CO)C[C@@H]1C
65	-2.3	i	4	4	-1.0	Cc1noc(C)c1S(=O)(=O)Nc1ccc2c(c1)CC(=O)N([C@@H](C)CO)C[C@H](C)[C@H](CN(C)Cc1ccncc1)O2
